Mtb bLac sens = beta-lactam sensitization of Mtb H37Rv. M. tuberculosis H37Rv growth with meropenem, percent inhibition; hits of this screen are not shown here. inhibition, % at 25 µM. 330,000 tested, 0.27% active. AID 434955;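 active means about 74% or more and at least 40 points above the plate without the antibiotic, then above 30% in a dose series; inconclusive means first-round hits that could not be retested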;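 further: growth measured after seven days incubation then overnight dye step; 0% = bacteria only wells and 100% = bacteria with antibiotic; twin plates without the antibiotic show which effects depend on it; some results filed as inactive read as strong as hits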
Mtb H37Rv = M. tuberculosis H37Rv growth inhibitors, H37Rv strain (AID 1626) | M. tuberculosis H37Rv growth inhibition; higher % means a stronger effect | inhibition, % at 10 µM, or IC50 in µM where a hit was titrated | 220,000 tested, 0.95% active;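 active means confirmed in a dose series; inconclusive means inhibition above 80% but not taken into the dose series; inactive means below 80% or under 30% at every dose of the series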;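 further: bacteria incubated seven days before Alamar blue readout; 0% = bacteria only wells and 100% = bacteria with antibiotic wells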
YopH inh = inhibitors of Yersinia enterocolitica YopH tyrosine phosphatase. AID 898. inhibition, %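 (about 10 µM by stock and volumes)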. fluorescence Ex485/Em525. 140,000 tested, 0.16% active;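 active means inhibition of 50% or more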;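 further: controls were vehicle for no effect and minimum signal wells for full effect; inactives centre near -20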
RecA intein inh = Mtb RecA intein splicing inhibition; P9WHJ3; cell-free RecA intein splicing, fluorescence; inhibition, %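 (about 9 µM by stock and volumes)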; 290,000 tested, 0.75% active; in the data active means inhibition above about 30%; inconclusive means no clear call, values can overlap the other calls;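 further: 0% = vehicle wells and 100% = reference inhibitor control wells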
Target sequence (P9WHJ3 whole entry, looked up): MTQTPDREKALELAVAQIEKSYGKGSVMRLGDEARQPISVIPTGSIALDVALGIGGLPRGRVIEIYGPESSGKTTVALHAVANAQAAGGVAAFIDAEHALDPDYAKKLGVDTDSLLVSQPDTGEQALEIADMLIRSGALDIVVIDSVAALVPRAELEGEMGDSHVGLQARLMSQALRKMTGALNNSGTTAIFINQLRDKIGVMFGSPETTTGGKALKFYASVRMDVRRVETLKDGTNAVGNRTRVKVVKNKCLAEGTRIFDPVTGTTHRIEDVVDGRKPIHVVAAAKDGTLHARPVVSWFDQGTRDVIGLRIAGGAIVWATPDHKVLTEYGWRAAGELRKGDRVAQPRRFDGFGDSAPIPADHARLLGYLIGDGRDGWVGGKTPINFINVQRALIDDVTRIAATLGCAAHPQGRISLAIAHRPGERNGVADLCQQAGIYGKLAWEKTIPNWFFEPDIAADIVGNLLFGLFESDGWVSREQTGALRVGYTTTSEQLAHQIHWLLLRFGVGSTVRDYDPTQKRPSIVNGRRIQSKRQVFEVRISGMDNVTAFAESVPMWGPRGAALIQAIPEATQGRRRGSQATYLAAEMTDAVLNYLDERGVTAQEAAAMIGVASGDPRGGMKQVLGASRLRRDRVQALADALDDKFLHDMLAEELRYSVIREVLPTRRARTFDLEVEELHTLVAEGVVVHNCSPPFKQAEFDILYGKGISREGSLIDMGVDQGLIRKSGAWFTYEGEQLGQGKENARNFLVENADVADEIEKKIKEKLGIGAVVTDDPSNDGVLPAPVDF
Arbovirus inh = antivirals against arbovirus infection | arbovirus infection cell-based antiviral screen | inhibition, % at 10 µM | 200,000 tested, 0.37% active | AID 1251;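 active means inhibition from about 30%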;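 further: bluetongue infection of BSR cells; cell survival read as ATP light after 72 h; 0% = infected wells without compound and 100% = uninfected wells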
Arbovirus inh repeat = further read-out of Arbovirus inh, marked with its call; inhibition, %; measured here: 10K subset replicate screen; many hits read low in the repeat;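 first of two repeat runs on a subset; 0% = infected and 100% = uninfected wells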
The depositor's hits bear a star; ? = inconclusive; / = no result given.

Start of the data: the first five entries, ahead of the listing:
SMILES | Mtb bLac sens | Mtb H37Rv | YopH inh | RecA intein inh | Arbovirus inh | others
O=C(c1cc(-n2cnnc2)ccc1Cl)N1CCN(c2nc(-c3ccccc3)cs2)CC1 | -4 | / | -8 | -0.9 | 2
O=C(O)c1ccc2c(=O)n(Cc3ccccc3)c(SCc3ccc([N+](=O)[O-])cc3)nc2c1 | 6 | / | / | -0.4 | /
COc1cccc(NC(=O)C(=O)NCCCn2ccnc2)c1 | -1 | 2% | / | 1.5 | -1
COC(=O)CN(n1cnnc1)S(=O)(=O)c1ccc(C)cc1 | 4 | -3% | -64 | -0.7 | -5
COc1ccc(Nc2ncc(C(=O)N3CCN(Cc4ccccc4)CC3)c3ccccc23)cc1 | 80 | 5% | -1 | -2.8 | -33

Results, from the start:
SMILES | Mtb bLac sens | Mtb H37Rv | YopH inh | RecA intein inh | Arbovirus inh | others
O=C(c1cc(-n2cnnc2)ccc1Cl)N1CCN(c2nc(-c3ccccc3)cs2)CC1 | -4 | / | -8 | -0.9 | 2
O=C(O)c1ccc2c(=O)n(Cc3ccccc3)c(SCc3ccc([N+](=O)[O-])cc3)nc2c1 | 6 | / | / | -0.4 | /
COc1cccc(NC(=O)C(=O)NCCCn2ccnc2)c1 | -1 | 2% | / | 1.5 | -1
COC(=O)CN(n1cnnc1)S(=O)(=O)c1ccc(C)cc1 | 4 | -3% | -64 | -0.7 | -5
COc1ccc(Nc2ncc(C(=O)N3CCN(Cc4ccccc4)CC3)c3ccccc23)cc1 | 80 | 5% | -1 | -2.8 | -33
CC1=C(C)CC(C(=O)N2CCN(Cc3ccccc3)CC2)C(C(=O)O)C1 (configuration not stated) | 1 | -6% | -49 | 2.0 | -1
O=C1/C(=C\c2ccco2)SC(=S)N1c1ccc(O)cc1 | 6 | 17% | -9 | 6.4 | 3
O=C(O)CCN1C(=O)/C(=C\c2ccc(-c3nc4ccccc4s3)o2)SC1=S | 16 | -12% | 5 | -46 | 26
Cc1ccc2c(c1)N(CC(=O)NCc1ccco1)C(=O)C(C(C)C)O2 (configuration not stated) | -5 | -3% | / | 3.7 | /
Cc1ccc(Cn2ccc(NC(=O)c3cc(-c4ccc(Cl)cc4)on3)n2)cc1 | -6 | 7% | -45 | -0.4 | -4
Cc1ccccc1OCc1nnc(SCC(=O)O)n1-c1cccc(Cl)c1 | -14 | / | / | -2.3 | /
CCOc1ccc(NS(=O)(=O)c2ccc3[nH]c(=O)c(=O)[nH]c3c2)cc1 | -7 | -3% | / | / | 4
COC(=O)CCCC(=O)Nc1ccc(Cl)c(Cl)c1 | 91 | 23µM* | -33 | 0.9 | -5
CCOC(=O)CSC1=NC(=O)CS1 | -8 | -6% | -44 | / | 8
Nc1nc(CSc2nc3ccccc3s2)nc(N2CCOCC2)n1 | -12 | 5% | / | 7.8 | -2
CCN1C(=O)C2(C(C#N)=C(N)Oc3n[nH]c(C(C)C)c32)c2ccccc21 (configuration not stated) | -6 | -9% | 23 | -1.6 | 1
CCN1CCN(C(=S)Nc2sc(C)c(-c3ccccc3)c2C(=O)OC)CC1 | 98 | / | / | 5.2 | /
O=C(CCCN1C(=O)/C(=C/c2ccccc2)SC1=S)Nc1cccc(O)c1 | 73 | / | / | 14 | -29
O=C(Nc1cccc(C(F)(F)F)c1)N1CCN(C(=O)Nc2cccc(C(F)(F)F)c2)CC1 | -8 | -6% | -18 | 1.8 | -4
COCCn1c(=NC(=O)CCS(=O)(=O)c2ccccc2)sc2cc(C)ccc21 | -10 | / | / | -0.8 | /
O=C(NNC(=S)NC(=O)c1ccccc1)c1cccc([N+](=O)[O-])c1 | 90 | / | / | -1.3 | /
CCOC(=O)c1c(-c2cccc([N+](=O)[O-])c2)csc1NC(=O)CCCOc1ccccc1OC | / | 4% | -16 | 4.0 | -2
c1cncc(-c2csc(NCc3ccco3)n2)c1 | -7 | 4% | -17 | -3.5 | 8
COc1ccc(NC(=O)CSCC(=O)N(C)CC(=O)Nc2ccc(Cl)c(C(F)(F)F)c2)cc1 | -11 | / | / | 2.0 | /
CCCc1ccc(/C=C2\C(=O)c3ccccc3C(O)=C2C(=O)OCC)cc1 | / | -2% | 9 | 36* | 17

(cont.)
SMILES | Mtb bLac sens | Mtb H37Rv | YopH inh | RecA intein inh | Arbovirus inh | others
O=C(/C=C/c1cccc([N+](=O)[O-])c1)N(c1ccccn1)c1ccccn1 | 18 | 7% | / | 5.4 | /
O=C(OCC(=O)c1ccccc1Br)c1ccncc1 | -7 | 8% | / | 1.3 | 4
COc1ccc(NS(=O)(=O)c2ccc(NC(=O)c3ccc(N(C)S(C)(=O)=O)cc3)cc2)cc1 | 4 | -3% | -26 | 2.9 | -3
O=C(NC(=S)NCCc1ccc(Cl)cc1)c1ccco1 | -3 | 7% | -35 | 1.1 | 0
Cc1noc(C)c1S(=O)(=O)N1CCCC(C(=O)Nc2nccs2)C1 (configuration not stated) | -4 | 4% | -19 | 2.0 | 4
Cc1ccc(S(=O)(=O)N2CCCCC2)cc1NC(=S)NC(=O)c1ccco1 | 0 | -9% | / | 0.3 | /
COC(=O)C1(c2ccccc2)NC(c2cccs2)C2C(=O)N(C)C(=O)C21 (configuration not stated) | -8 | 6% | -38 | -3.6 | 7
CCOc1ccc(Br)cc1/C=N/NC(=O)c1ccncc1 | 98 | ? | -38 | 5.2 | 0
O=C1/C(=C\c2ccncc2)N2CCC1CC2 | 48 | -5% | / | 1.2 | /
CCOC(=O)C1(Cc2cccc(F)c2)CCN(Cc2nc(CC)[nH]c2C)CC1 | -7 | 9% | / | -11 | -9
Cn1c(COc2ccccc2)nnc1SCC(=O)NCc1ccccc1 | 0 | 1% | -33 | -1.6 | -4
Cc1ccccc1CN(c1ccc(C(=O)N2CCN(C)CC2)cc1)S(C)(=O)=O | -10 | / | / | -0.4 | /
Cc1nc2ccccc2c(=O)n1/N=C/c1c(O)ccc2ccccc12 | 2 | -3% | / | 4.3 | 7
N#C/C(C(=O)c1ccccc1)=C1/CCCN1 | -6 | -14% | -34 | -0.2 | 9 | Arbovirus inh repeat=-1
Cc1ccc(C(=O)NNC(=O)C2CCN(c3nc(C)cc(C)n3)CC2)cc1 | -11 | -7% | -35 | 1.4 | -6
O=C(NC1CCCC1)C(c1ccccn1)N(Cc1ccccc1F)C(=O)c1csnn1 (configuration not stated) | -2 | / | / | 1.6 | /
CCCc1nc2oc3c(NCCN(C)C)ncnc3c2c2c1CCCC2 | 31 | 12% | -34 | 2.4 | -25
O=C(COc1ccccc1/C=C\c1nc(O)c([N+](=O)[O-])c(=O)[nH]1)Nc1ccccc1 | / | 8% | / | / | 4
CC(C)N1CCN(Cc2cn[nH]c2C2CCCCC2)CC1CCO (configuration not stated) | -10 | 2% | / | -0.6 | -3
CCOC(=O)C1(S(=O)(=O)c2ccccc2)CCN(Cc2ccc(Cl)cc2)CC1 | -3 | -1% | -27 | 8.3 | 20
CO/N=C/NC(=O)c1c(OC)ccnc1Oc1ccc(Cl)cc1 | 1 | 4% | 3 | 2.4 | 6
CCN(CC(=O)N1CCOCC1)S(=O)(=O)c1ccc2ccccc2c1 | -11 | / | / | -1.7 | /
COc1ccc(NC(=O)c2cc(C)cc(C)c2)cc1[N+](=O)[O-] | -1 | 0% | / | -47 | 1
COc1ccc(Cl)cc1/C=C/c1ccc2cccc(O)c2n1 | 91 | / | / | 4.0 | /
Cn1c(=O)c2c([nH]c(=S)n2Cc2ccc(Cl)cc2)n(C)c1=O | -2 | / | / | -9.2 | /

Two entries picked at random from those above, as already listed:
SMILES | Mtb bLac sens | Mtb H37Rv | YopH inh | RecA intein inh | Arbovirus inh | others
COC(=O)C1(c2ccccc2)NC(c2cccs2)C2C(=O)N(C)C(=O)C21 (configuration not stated) | -8 | 6% | -38 | -3.6 | 7
COc1ccc(NC(=O)c2cc(C)cc(C)c2)cc1[N+](=O)[O-] | -1 | 0% | / | -47 | 1

The listing picks up, starting 6 compounds before the break.
SMILES | Mtb bLac sens | Mtb H37Rv | YopH inh | RecA intein inh | Arbovirus inh | others
CCOC(=O)C1(S(=O)(=O)c2ccccc2)CCN(Cc2ccc(Cl)cc2)CC1 | -3 | -1% | -27 | 8.3 | 20
CO/N=C/NC(=O)c1c(OC)ccnc1Oc1ccc(Cl)cc1 | 1 | 4% | 3 | 2.4 | 6
CCN(CC(=O)N1CCOCC1)S(=O)(=O)c1ccc2ccccc2c1 | -11 | / | / | -1.7 | /
COc1ccc(NC(=O)c2cc(C)cc(C)c2)cc1[N+](=O)[O-] | -1 | 0% | / | -47 | 1
COc1ccc(Cl)cc1/C=C/c1ccc2cccc(O)c2n1 | 91 | / | / | 4.0 | /
Cn1c(=O)c2c([nH]c(=S)n2Cc2ccc(Cl)cc2)n(C)c1=O | -2 | / | / | -9.2 | /
O=[N+]([O-])c1cnccc1NC1CCCCC1 | -8 | / | / | 2.9 | /
Cc1cc(C)n(-c2nc3ccccc3[nH]c2=O)n1 | -11 | -9% | -1 | 8.4 | 8
CCOC(=O)C1CCCCN1Cc1cccc(Oc2ccccc2)c1 (configuration not stated) | -8 | / | / | 13 | /
COc1ccc(NC(=O)C2CCN(S(=O)(=O)c3c(C)noc3C)CC2)cc1OC | 7 | / | / | -1.8 | /
Cc1cc(NS(=O)(=O)c2ccc(NC(=O)c3c(F)c(F)c(F)c(F)c3F)cc2)nc(C)n1 | -2 | / | / | 1.5 | /
COCCN(C(=O)c1ccco1)c1nnc(-c2ccc(F)cc2)s1 | 12 | 6% | / | 1.9 | 2
COc1ccccc1N1CCN(CCN2C(=O)C3CCCN3C2=O)CC1 (configuration not stated) | 5 | / | / | -4.2 | /
COc1ccccc1CCC(=O)N(CCC1=CCCCC1)c1c(N)n(Cc2ccccc2)c(=O)[nH]c1=O | -2 | / | / | 3.8 | /
CNCC(=O)Nc1ccc(Cl)c(C(F)(F)F)c1 | -6 | -2% | / | / | 1
Cc1cc(C(=O)NC(C)CCc2ccccc2)ccc1[N+](=O)[O-] (configuration not stated) | 6 | / | / | -0.4 | /
O=C(CN1C(=O)NC2(CCCC2)C1=O)N1CCN(C(=O)c2ccco2)CC1 | -7 | 0% | -39 | 3.6 | 10
COc1cccc(NC(=O)CCNS(=O)(=O)c2ccc(Br)s2)c1 | 65 | / | / | -4.1 | /
O=C(c1ccc(CN2CCc3ccccc3C2)cc1)N1CCc2ccccc2C1 | -10 | / | -2 | 5.3 | 9
COc1ccc(C(=O)C(CCCCC(CN(C)C)C(=O)c2ccc(OC)cc2)CN(C)C)cc1 (configuration not stated) | -6 | / | -24 | -1.7 | -2
COc1ccc(NC(=O)CN2C(=O)COc3ccc(C)cc32)c(OC)c1 | -2 | / | / | 0.3 | /
Clc1ccccc1-c1nnc(-c2cccs2)o1 | -3 | -15% | / | -1.4 | -5
CCOc1cc(C)c(S(=O)(=O)NC2CC(C)(C)NC(C)(C)C2)cc1C | -3 | -1% | / | -1.6 | -5
Cc1ccc2c(c1)N(CCC(=O)NCCCN1CCCC1)C(=O)CO2 | -11 | / | / | 1.6 | /
CCCS(=O)(=O)N1CCN(C(=O)COc2ccccc2)CC1 | 6 | -4% | -7 | -0.2 | -1
O=C(NCc1ccco1)C(c1ccco1)N(CCc1ccccc1)C(=O)Cn1nnc2ccccc21 (configuration not stated) | -11 | 5% | -51 | -1.0 | 5
COc1ccc(CC(=O)OCc2nnc(-c3ccccc3)o2)cc1 | -7 | -1% | / | 3.5 | 0
Cc1ccc(CNC(=O)C2CCCN2C(=O)NCc2ccccc2)cc1 (configuration not stated) | -9 | 3% | -19 | 0.3 | 10
Cc1cc(C)nc(NC(N)=NC(C)c2ccccc2)n1 (configuration not stated) | -2 | 3% | / | 1.1 | 1
CCc1ccc(N2C(=O)NC(=O)/C(=C\C=C\c3ccco3)C2=O)cc1 | 95 | -3% | / | -1.2 | /
CCOc1ccc(NC(=O)Cn2nnc(-c3ccccc3NC(=O)CC)n2)cc1 | -8 | -9% | -18 | -3.1 | 0
COCCNC(=O)C(=O)N/N=C(\C)CC(=O)Nc1cccnc1 | -7 | -6% | / | -0.2 | 5

Assay outcomes as filed in PubChem BioAssay.

A portion of the library, so the mix of outcomes need not match the whole.
